Beta apoptosis = beta cell apoptosis inhibition; 0.8% of 300,000 active; protection from apoptosis, % (concentration not given with the values); INS-1E cytokine-induced death, ATP luminescence, 48 h; percent of positive-control rescue, neutral wells zero;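 active means all replicates at 75% or more, or half of them and the mean; inconclusive means half reach 75% but not the mean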;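 further: 0% = cytokine-treated negative control wells and 100% = positive control rescue; higher means more ATP so stronger rescue from cytokine killing; wells of about 40 µL received 100 nL stock; the first replicate is given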
RanGTP-Imp inh = disruptors of Ran-importin-beta complex formation – biochemical, FRET, CFP-Ran, YFP-importin-beta, homogeneous, primary screen; cell-free CFP-Ran/YFP-importin-beta FRET ratio; inhibition, % (test concentration not listed); 1.1% of 300,000 active; AID 2216;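 active means most replicates above 15%; inconclusive means exactly half above 15%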;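 further: 0% = DMSO wells and 100% = Ran loaded with GDP instead of GTP; wells of about 40 µL received 100 nL stock; the first replicate is given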
Calb FLC = C. albicans growth modulation with fluconazole | growth inhibition, % (test concentration not listed) | AID 1979 | 0.57% of 300,000 active | C. albicans CaCi-2 (fluconazole-resistant clinical isolate) + fluconazole, Alamar Blue growth, 48 h;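 active means most replicates above 75%; inconclusive means exactly half above 75%; inactive means most below 75%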;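 further: all wells also contain fluconazole at 8 µg/ml as a sub-toxic cotreatment; 0% = median of DMSO wells and 100% = median of geldanamycin control wells; wells of about 8 µL received 7.5 nL stock; the first replicate is given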
LANA-H2A inh = blocks KSHV LANA binding to histone H2A/H2B | cell-free LANA-H2A/H2B peptide, fluorescence polarization | 0.6% of 320,000 active | AID 2629 | inhibition, % (no concentration beside the values); in the data active means inhibition mostly above about 10%, no sharp cut-off; inactive means mostly below about 6.7%;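 further: stock transfer was 7.5 nL into about 10 µL; 0% = median of vehicle wells and 100% = median of positive control wells; one replicate is shown; the record names a cut of 25% in any replicate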
Bfl-1 A1 inh = inhibitors of the anti-apoptotic protein A1, read as caspase activation | caspase activation, % (concentration not given with the values) | 0.066% of 330,000 active | MEF A1-2A-BIM cells, Caspase-Glo 3/7 luminescence, 3 h; percent of clofoctol response, vehicle zero;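 active means over half of replicate activation scores above 10%, or exactly half above 10 with the replicate mean above 10; inconclusive means replicate mean below 10 yet half the replicates above 10; inactive means over half of replicates below 10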;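 further: wells of about 30 µL received 50 nL stock; many hits fall short of the cut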
AF4-AF9 inh = blocks AF4 peptide binding to human AF9. AID 651704. inhibition, % at 10 µM. AlphaScreen, biotin-AF4 peptide binding to FLAG-AF9. 0.47% of 350,000 active. P42568;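 active means every replicate reaching a set inhibition limit, whatever the replicate mean, cut at about 25% in these data; inconclusive means mean inhibition reaches that limit but some replicates miss it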;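 further: 0% = plate neutral control median and 100% = total signal loss; the record names both 10 and 1 µM as test concentration; the first replicate is given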
Target sequence (P42568 whole entry, looked up): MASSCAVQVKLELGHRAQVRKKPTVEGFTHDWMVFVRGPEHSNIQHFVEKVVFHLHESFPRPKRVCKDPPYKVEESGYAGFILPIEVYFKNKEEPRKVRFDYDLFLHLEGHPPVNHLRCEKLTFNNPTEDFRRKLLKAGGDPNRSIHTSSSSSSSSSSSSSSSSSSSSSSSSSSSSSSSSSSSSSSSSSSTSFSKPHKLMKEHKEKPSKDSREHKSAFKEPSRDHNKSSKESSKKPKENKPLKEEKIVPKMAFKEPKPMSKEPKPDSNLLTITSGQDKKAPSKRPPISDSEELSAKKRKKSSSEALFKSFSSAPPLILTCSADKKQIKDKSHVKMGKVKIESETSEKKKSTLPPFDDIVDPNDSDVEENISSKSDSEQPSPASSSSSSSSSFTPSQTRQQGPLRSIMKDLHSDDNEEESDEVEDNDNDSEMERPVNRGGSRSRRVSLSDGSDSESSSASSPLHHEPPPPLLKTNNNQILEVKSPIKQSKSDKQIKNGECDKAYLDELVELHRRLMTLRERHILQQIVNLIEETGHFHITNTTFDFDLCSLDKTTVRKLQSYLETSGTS
Vif TR-FRET = inhibitors of Vif binding to APOBEC3G peptide, primary screen, biochemical, TR-FRET, GST-Vif 1-94, biotin-A3G peptide, dose response retest (AID 1117319) | 0.57% of 260,000 active | TR-FRET GST-Vif / biotin-A3G peptide binding; higher % means a stronger effect; test concentration not given here; strong numbers were not always called active | inhibition, %, or IC50 in µM where a hit was titrated;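 active means above the screen mean plus three standard deviations and confirmed in dose response; inconclusive means results disagree or hit not tested in dose response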;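 further: Vif residues 1-94 fused to GST binding biotinylated APOBEC3G peptide 110-148; 0% = full assay without inhibitor and 100% = GST in place of GST-Vif; retest series ran down from 100 µM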
T cruzi repl = blocks replication of Trypanosoma cruzi | T. cruzi beta-gal in NIH3T3, luminescence, 90 h | inhibition, % (concentration not given with the values) | 1.4% of 300,000 active;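 active means mean inhibition across valid replicates above about 55%, limit read from the data; inconclusive means mean below that limit but half or more replicates reach it; inactive means mean below it, under half of replicates reach it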;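 further: signal also drops with host cell toxicity which is not excluded here; 0% = plate median of DMSO wells and 100% = zero luminescence signal; higher percent means less beta-gal luminescence so fewer parasites; stock transfer was 50 nL into about 50 µL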
* = called active by the depositor; ? = inconclusive; · = no result given; & = joins results of further samples; ! = not confirmed by another sample. Compounds as they come; any-hit rate near 4.3%.

SMILES	Beta apoptosis	RanGTP-Imp inh	Calb FLC	LANA-H2A inh	Bfl-1 A1 inh	AF4-AF9 inh	Vif TR-FRET	T cruzi repl
Cc1ccc(C)c(S(=O)(=O)N2CCN(CC(=O)Nc3ccc4c(c3)CCC4)CC2)c1	6	0.7	?	-6.4	-0.2	1.4	·	2
O=C(OC1CCN(c2ncc(C(F)(F)F)cc2Cl)CC1)c1cccc(C(F)(F)F)c1	1	0.7	-4	-2.2	-0.6	·	7%	-9
CCC1CCCCN1C(=O)CSc1nnc(-c2ccc(OC)cc2)o1 (stereo not drawn)	-9	-1.2	6	6.0	-0.4	-1.0	-4%	7
Cc1cc(OC(C)C(=O)N2CCN(c3ccccc3)CC2)c2c(C)c(C)c(=O)oc2c1 (stereo not drawn)	10	0.6	-4	3.1	0.5	2.1	·	-6
CCOC(=O)C1=C(CSc2nc3ccccc3s2)NC(=O)NC1c1ccc(OC)cc1 (stereo not drawn)	50	1.3	30	-1.2	1.3	·	-4%	24
O=C(COC(=O)CNC(=O)c1ccccc1)NC1CCCCC1	-2	·	·	-3.6	0.7	1.8	·	·
Fc1ccccc1NC(=S)N1CCN(c2ccccn2)CC1	-7	7.3	17	-3.9	0.8	·	-14%	-9
Nc1ccc(NC(=O)Nc2ccc(N)cc2)cc1	-1	-1.1	1	-1.6	1.0	-0.9	6%	-7
C=CCOc1ccc(-c2nc3c(c(=O)[nH]c(=O)n3CCCC)n2C)cc1OC	1	-4.4	6	-3.6	1.4	-0.3	-10%	0
COc1cccc(/C=C(/C(=O)OCC(=O)NC2CCCCCCC2)c2ccccc2)c1	-2	-1.9	1	0.9	0.6	-1.3	0%	15
CC(Oc1ccc(Cl)cc1Cl)C(=O)NN=C1CCN(C)CC1 (stereo not drawn)	·	0.6	-27	2.8	1.0	·	3%	7
CCCCCCC(=O)Nc1ccc(C(=O)N2CCCC2)cc1	-9	-2.4	-14	2.1	1.4	·	2%	-23
Cc1ccccc1NC(=O)CCC(=O)N/N=C/c1c[nH]c2ccccc12	-3	?	-18	0.3	1.1	1.9	8%	-11
Cc1ccc(C(=O)N/C(=C/c2ccco2)C(=O)NC2CCS(=O)(=O)C2)cc1 (stereo not drawn)	-9	?	42	2.5	-0.8	-2.0	-2%	-8
COc1ccccc1CN1CCC(n2nccc2NC(=O)CCCc2ccccc2)CC1	4	-1.8	-10	5.6	0.2	3.5	·	14
Cc1ccc(C(=O)NCCc2c[nH]c3ccccc23)s1	-9	1.5	7	9.0	-0.4	2.0	·	2
CC(C)COc1ccc(C(=O)OCCN2CCCCC2)cc1	·	1.1	-11	-4.9	0.4	1.0	1%	10
Cc1cc(Br)cc(C)c1NC(=S)NC(=O)CC(C)C	3	1.8	15	1.2	0.8	·	-4%	0
Cc1ccc(S(=O)(=O)N(C)CC(=O)N2CCN(c3ccccn3)CC2)cc1	0	-0.7	3	-3.0	-0.5	·	-3%	-1
CC(C)NC(=O)c1ccc(OC2CSC2)cc1	·	0.1	0	-9.5	1.4	·	-6%	4
Cc1nc2ccc(C(=O)O)cc2[nH]1	-6	?	-1	-5.9	-0.2	·	-3%	-8
COc1ccc(CN(C)CCc2ccccn2)c(OC)c1OC	-3	-4.4	?	-9.4	1.2	·	0%	45
O=C(Nc1nnc(-c2ccccc2)o1)C1CCCCC1	4	0.3	-21	-1.1	0.0	4.1	6%	-3
CCN1C(=O)CC(N2CCN(c3ccc(C(=O)c4ccncc4)cc3)CC2)C1=O (stereo not drawn)	-4	5.1	17	2.4	0.3	·	1%	0
NNC(=O)CCc1c[nH]c2ccccc12	-5	3.2	27	1.3	2.1	·	1%	-6
O=c1oc2ccc(Cl)cc2cc1-c1ccccc1	-2	1.0	-10	1.6	-1.7	·	9%	-7
CCC1Oc2ccc(C)cc2N(CC(=O)NCC2COc3ccccc3O2)C1=O (stereo not drawn)	2	1.6	1	1.8	0.3	-11	-6%	9
N#Cc1nc(N2CCOCC2)nc(N2CCOCC2)n1	-9	6.2	6	2.8	0.7	·	0%	-11
COc1ccc2oc(=O)cc(C)c2c1	-4	1.4	-4	3.0	0.1	·	13%	-16
COc1ccccc1CNC(=O)CN(C)S(=O)(=O)c1ccc(Br)s1	2	-1.2	4	1.1	1.9	2.8	·	2
COc1ccccc1-n1c(SCC(=O)N2CCOCC2)nc(O)cc1=O	-7	6.3	-5	0.5	0.5	-1.8	0%	-7
O=C(c1ccc(C(=O)N2CCCCCC2)cc1)N1CCCCCC1	2	-2.7	-5	0.1	0.5	·	-3%	-5
O=C(O)C1C2C=CC3(CN(c4cccc(C(F)(F)F)c4)C(=O)C13)O2 (stereo not drawn)	-4	-2.4	-3	-0.1	-0.2	·	-2%	-23
C=CCN1C(=O)/C(=C/c2ccccc2)S/C1=N/c1nccs1	-3	0.0	-9	-2.0	-0.1	·	·	5
COc1ccc(/C=N/NC(=O)c2nn(-c3ccccc3)c(=O)c3c(N)scc23)cc1	-7	-2.4	34	0.7	0.1	·	?	3
Cc1cccc(C)c1NC(=S)N1CCCN(Cc2ccc(F)cc2)C1	0	-1.2	-4	3.2	0.4	-18	2%	35
COc1cccc(N/N=C(\C#N)S(=O)(=O)C(C)(C)C)c1	3	3.4	?	-4.5	-0.5	-0.2	-5%	-6
COc1ccccc1N1CC(C(=O)Nc2ccc(N3CCOCC3)cc2)CC1=O (stereo not drawn)	2	·	·	-3.1	-0.7	-5.3	14%	·
CN(C(=O)Cn1nnc2ccccc2c1=O)C1CCCCC1	0	-1.7	2	-4.3	0.2	-1.7	·	-10
COCCn1c(SCC(=O)NC2CCCC2)nnc1-c1ccco1	-2	-6.4	-2	5.6	0.2	1.0	·	2
COc1ccc(CNC(=O)CCCc2ccccc2)cc1	·	-0.5	0	-3.6	0.9	·	-5%	0
CC1(C)Cc2c(sc3c2c(=N)n(Cc2ccco2)c(=O)n3CC(=O)Nc2cccc(Cl)c2)CO1	2	1.7	2	2.5	0.8	·	3%	26
CCn1ccc(C(=O)NCCCN2CCCC2=O)n1	-1	-0.8	1	-5.4	-0.3	-0.6	·	-8
O=C(COc1ccc(F)cc1F)Nc1cccnc1	-4	4.0	-11	4.3	0.4	0.4	-1%	-12
CCCCn1nc2cc(C(=O)NCc3ccco3)ccc2c1OCC	-5	-4.6	-2	-5.1	0.1	·	9%	-22
CS(=O)(=O)N1N=C(c2cccs2)CC1c1ccccc1F (stereo not drawn)	1	-2.7	-3	-2.3	2.6	0.3	4%	-11
CCOC(=O)c1c(C)n(C)c2cc(-c3cccc(C(F)(F)F)c3)c(O)cc12	-3	11	-3	2.8	-0.4	2.3	1%	17
O=C(NC1CCC(C(=O)O)CC1)OCc1ccccc1 (stereo not drawn)	-9	2.4&4.9	5&12	3.7&-2.3	-0.3&-0.1	-1.7	12µM*!	-9&-4
CCOc1ccc(S(=O)(=O)NCCCN2CCCC2=O)cc1	-1	-1.2	13	2.7	0.4	-0.4	·	-1
COc1ccc(C(=O)NCCc2ccccc2)cc1OC	-7	6.6	7	-0.1	0.4	-2.6	-5%	-5

Next part:
SMILES	Beta apoptosis	RanGTP-Imp inh	Calb FLC	LANA-H2A inh	Bfl-1 A1 inh	AF4-AF9 inh	Vif TR-FRET	T cruzi repl
O=C(c1ccc(S(=O)(=O)N2CCOCC2)cc1)N(c1ccccc1)C1C=CS(=O)(=O)C1 (stereo not drawn)	-6	4.2	5	2.8	0.1	·	2%&7%	-3
CSCCC(NC(=O)/C(=C\c1ccc(Cl)cc1)NC(=O)c1ccccc1)C(=O)O (stereo not drawn)	-3	1.4	-1	4.3	0.3	-2.8	1%	-6
O=C(Nc1cccc(S(=O)(=O)N2CCCCC2)c1)C1CCC1	-4	·	2	-1.0	0.1	3.0	-2%	0
CC(=O)N(Cc1ccc(F)cc1)Cc1nc2ccccc2c(=O)[nH]1	-1	1.9	-4	-0.5	-0.4	1.1	-2%	-2
C=CCn1c(SCC(=O)Nc2ccccc2)nnc1-c1cccc(S(=O)(=O)N2CCOCC2)c1	11	-2.0	-1	2.8	2.0	·	4%	7
Cn1c(SCC(=O)Nc2cccnc2)nnc1-c1ccccc1F	-7	-0.9	-13	-0.1	-0.3	-10	-5%	-2
O=C(CN1CC(=O)Oc2ccccc21)OCC(=O)c1ccc(F)cc1	-20	-4.0	15	·	-1.1	-10	·	-35
O=C(CSc1ccc2nnc(-c3ccccn3)n2n1)Nc1ccc(F)cc1F	-1	-1.6	4	2.0	0.7	-0.8	7%	-5
Cc1ccc(-c2nnc(SCC(=O)N/N=C/c3ccccc3C(=O)O)n2C2CCCCC2)cc1	0	-3.6	-4	-3.9	0.3	-0.6	·	-1
CCC(C)Cn1c(C(C)C)nc2ccccc21 (stereo not drawn)	·	2.7	-1	-2.1	0.7	-0.8	-9%	-3
CCOC(=O)c1cn[nH]c1NC(=S)Nc1ccc(OC)cc1	·	0.7	0	7.2	-0.8	0.4	·	-29
CCN(CC)C(=O)Cn1cnc2sc(C(=O)Nc3cc(OC)c(OC)c(OC)c3)c(C)c2c1=O	-3	1.2	-3	1.4	0.7	·	79%	-2
Nc1cn(C2OC(CO)C(O)C2O)c(=O)[nH]c1=O (stereo not drawn)	-1	-3.7	-3	1.6	3.3	3.8	·	-8
O=C(NCc1ccncc1)Nc1cccc([N+](=O)[O-])c1	-1	2.1	?	15	-0.2	0.9	32%	-12
O=[N+]([O-])c1cccc(-n2nncc2-c2ccccc2)c1	0	1.3	11	0.6	-0.1	3.6	2%	-10
O=C(Nc1cnn(Cc2ccc(F)cc2)c1)c1cc(-c2cccs2)on1	33	-1.5	5	-2.2	0.5	6.1	10%	25
CCC(NC(=S)NCc1ccccc1)C(=O)O (stereo not drawn)	-3	0.8	-18	2.0	0.6	·	-1%	7
COc1ccc(Br)cc1S(=O)(=O)n1ccnc1C	-5	1.3	0	2.4	0.3	·	15%	12
CCOc1c2ccc(C(=O)NCc3ccc4c(c3)OCO4)cc2nn1C	1	3.4	-10	20*	0.1	-0.3	-4%	7
Cc1n[nH]c(C)c1S(=O)(=O)N1CCCC(C(=O)NC2CCCc3ccccc32)C1 (stereo not drawn)	-3	-3.2	-3	-3.0	-1.0	0.8	9%	10
O=C(CCN1C(=O)[C@@H]2Cc3ccccc3CN2C1=O)NCc1ccc(Cl)cc1	-1	-1.4	8	2.2	0.7	0.2	·	5
O=C(Nc1ccccc1Oc1cccnc1)C1CCCN(C/C=C/c2ccccc2)C1 (stereo not drawn)	2	4.0	-10	-24	0.4	5.7	·	32
Cc1cccc(CSc2ncnc3nc[nH]c23)c1	-5	-2.7	1	1.5	0.0	-2.9	-7%	-10
COC(=O)CNC(=O)c1cc(-c2ccncc2)nc2ccc(C)cc12	-3	5.6	7	-1.7	0.8	0.1	·	1

Screening data as filed in PubChem.
